# Autofluor counter: counter-screen for toxin protease inhibitors: compound fluorescence | compound autofluorescence counterscreen, microsphere flow cytometry; stronger effect = higher value | fluorescence intensity (no concentration beside the values) | actives 3.1% (n = 360,000) | AID 624483;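 active = at least 3 SD above the mean of all compounds, about 16000 in these data; inconclusive = too few beads counted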;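 also: 100 nL of 1 mM stock went into each well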
# Mtb hypoxia inh: PubChem AID 1159583; M. tuberculosis hypoxia-regulated fluorescent reporter, fluorescence; fluorescence inhibition, % (concentration not given with the values); actives 0.1% (n = 300,000);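 active = 35 to 45% if threefold the growth effect, above 45% if 1.5-fold the growth effect; inactive = the rest, general growth blockers included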;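 also: wells of about 50 µL received 100 nL stock; 0% = vehicle wells and 100% = reference inhibitor wells; whole bacteria with a GFP reporter of the hypoxia response; strong numbers were not always called active; many hits fall short of the cut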
# PrP 5UTR inh: inhibition of PrP 5' UTR reporter expression; cell-based PrP 5' UTR mRNA reporter, plate reader; actives 0.35% (n = 340,000); inhibition, % (no concentration beside the values);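 active = every replicate at 50% or more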;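 also: 0 = median of the neutral control wells; tested in H4 reporter cells; numbers are from one replicate; inactives centre near -14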
# BJeLR lethal: MLPCN primary cell-based screen for lethality selective to Ras in HRASV12 cells; BJeLR (HRASV12) viability, CellTiter-Glo ATP luminescence, 48 h; reference of the scale not given here; inhibition, % (concentration not given with the values); actives 0.17% (n = 300,000); AID 1554, 2009;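 active = replicate mean above 50%; inconclusive = above 50% but judged a plate artefact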;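 also: 50 nL library stock added to about 25 µL; numbers are from one replicate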
# Sa ugtP lethal: growth inhibition of ugtP-null S. aureus, primary screen, RN4220 ugtP deletion, OD600. actives 0.54% (n = 330,000). growth inhibition, % (no concentration beside the values). 16 h; some inactives read as strong as hits;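 active = z-score under -3 and OD600 up to 0.15 on both plates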;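 also: plate controls were untreated wells for no effect and antibiotic for full effect; wells of about 80 µL received 100 nL stock; the first replicate is given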
# RN4220 kill: growth inhibition of S. aureus RN4220, primary screen, OD600. 16 h. inhibition, % (no concentration beside the values). actives 0.33% (n = 330,000);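 active = z-score of -3 or lower and OD600 up to 0.18 on both plates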;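 also: plate controls were untreated cells for no effect and reference antibiotic for full effect; stock transfer was 100 nL into about 80 µL; one replicate is shown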
# Mtb hypoxia inh growth: recorded beside Mtb hypoxia inh, whose call it bears; growth inhibition, %; measured here: M. tuberculosis growth (absorbance);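 0% = vehicle and 100% = reference antibiotic; read after six days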
# An asterisk follows results filed as active; ? = inconclusive; / = not tested or not shown.
SMILES,Autofluor counter,Mtb hypoxia inh,Mtb hypoxia inh growth,PrP 5UTR inh,BJeLR lethal,Sa ugtP lethal,RN4220 kill
OCCNc1nc(Nc2ccccc2Cl)nc(N2CCCC2)n1,3551,2,0,-9,1,1,6.6
CC1C(=O)OC2C(O)C34C5OC(=O)C3(OC3OC(=O)C(O)C34C(C(C)(C)C)C5O)[C@@]12O (stereo partly specified),/,12,1,/,/,2,8.5
CCCCN(NC(C)=O)c1nc(Cl)nc(NC(C)C)n1,6562,-1,-7,-18,-10,1,3.3
COc1ccc(NC(=O)CSc2nnc(-c3ccc(C)cc3)n2N)cc1,9474,-2,5,-27,-5,5,1.8
C[C@H](NC(=O)c1nc[nH]c1C(=O)NC(c1ccccc1)c1ccccc1)C(=O)OC(C)(C)C,4112,/,/,-11,5,/,/
O=C(Cn1nnc2ccccc21)NN=Cc1ccco1,/,3,-10,/,/,-1,7.0
N#C/C(=C\C=C\c1ccccc1)C(=O)Nc1ccccc1,2676,13,6,-34,-8,2,0.1
CC(=O)N1CCc2cc(Br)cc(S(=O)(=O)N3CCCCCC3)c21,4405,/,/,-10,-2,2,6.7
Cc1ccc(NC(=O)c2cccc(C(=O)OC(C)C)n2)c(Br)c1,2451,-3,3,-21,-11,18,-2.6
CC(C)c1nc2c(s1)CCc1onc(-c3ccc(Cl)cc3)c1-2,3018,3,9,-17,-7,51,-4.0
Brc1ccc2oc3c(N4CCOCC4)ncnc3c2c1,11131,0,10,-37,-1,-8,2.7
O=C1CC(c2cccc(Oc3ccccc3)c2)NC(=O)N1 (stereo unspecified),8805,6,-1,-9,-3,0,-0.1
CC(OC(=O)CCC(=O)N1CCN(S(=O)(=O)c2ccc3ccccc3c2)CC1)C(=O)NC(N)=O (stereo unspecified),3144,-9,-11,1,9,4,5.4
CCOC(=O)CSc1nnc(-c2cccnc2)o1,5015,/,/,-2,9,-4,0.3
CN(Cc1nc(-c2cnccn2)no1)CC1(c2ccccc2)CC1(C)C (stereo unspecified),4259,2,0,-4,-14,-62,13
COCCN(C(=O)CNC(=O)c1ccco1)C(C(=O)NC1CCCCC1)c1cccs1 (stereo unspecified),2839,/,/,-25,0,2,0.0
CCCCc1nc2n[nH]c(N)c2c2c1CCCC2,4571,/,/,1,6,-3,0.6
CCN1CCN(CCC(=O)Nc2cc(C)ccc2C)CC1,4409,5,10,6,-3,1,2.7
COc1cc(-c2nnc(COc3ccc(Cl)cc3C)o2)cc(OC)c1OC,4006,/,/,-8,-6,-7,0.2
COc1ccccc1C(=O)NCC(=O)OCC(=O)Nc1cccc(S(=O)(=O)N(C)C)c1,4176,11,8,-25,-7,2,6.6
COc1ccc(O)c(-c2cc(-c3ccccc3Cl)[nH]n2)c1,3698,19,4,-49,-1,-7,-2.1
O=C(NN=Cc1cc(Br)c(O)c(Br)c1)c1cccnc1,/,-1,0,/,/,13,9.7
Cc1ccc(S(=O)(=O)N(CC(O)CN2CCOCC2)c2cc(Cl)ccc2Cl)cc1 (stereo unspecified),2981,/,/,2,-10,0,-0.3
CCOC(=O)c1nc(Nc2ccc(C(C)=O)cc2)c2ccccc2n1,6018,4,1,-8,10,-11,2.9
Cc1ccc(-c2ccc(/C=C/C(=O)c3ccccc3)o2)cc1,2633,11,2,-23,-13,0,15
C/C=C/C(=O)Nc1cccc(C2=NOC3(C2)C[C@@H](C(N)=O)N(C(=O)c2cc([N+](=O)[O-])cc([N+](=O)[O-])c2)C3)c1 (stereo partly specified),4225,/,/,-24,-2,/,/
O=C(CSc1nnc(-c2ccccc2)n1-c1ccccc1)c1ccc[nH]1,2210,-2,-10,-16,-1,-8,3.1
C=CCn1c(SCc2nc3ccccc3nc2C)nnc1-c1ccoc1C,3877,/,/,0,2,1,9.2
COc1ccc(/C=N/NC(=O)c2ccc3ccccc3c2)cc1OS(=O)(=O)c1ccc(NC(C)=O)cc1,8854,/,/,-47,0,/,/
O=C(Oc1ccc2c(=O)c(Cl)coc2c1)c1cccnc1,3278,4,-17,-6,-24,15,2.9
O=C(/C=C/c1cccc([N+](=O)[O-])c1)N1CCN(S(=O)(=O)c2cccs2)CC1,4809,6,9,-20,-6,5,2.6
O=C(CS(=O)(=O)Cc1ccccc1)Nc1ccc(Br)cc1F,4655,-1,-1,-14,9,8,0.6
O=C(CCc1nnc(C2CCCCC2)o1)N1CCN(C2CCCCC2)CC1,5538,12,3,-10,6,3,6.9
CCc1nc(SCC(=O)Nc2ccc(F)cc2)c2c(=O)n(C)c(=O)n(C)c2n1,5367,3,-2,5,0,-7,0.4
O=C(NCc1ccccc1Cl)c1cccc(OC2CCN(C(=O)C3CC3)CC2)c1,12205,5,8,-15,-4,6,2.0
COC(=O)C1=CN(Cc2cccs2)C=C(C(=O)OC)C1c1cccc(Cl)c1,3793,2,8,-5,10,29,6.0
CCCc1nc2oc(C(=O)c3ccccc3)c(N)c2c2c1COC(C)(C)C2,2997,16,9,0,-5,6,-3.4
CCCC(=O)Nc1ccc(C=C(C(C)=O)C(C)=O)cc1,7656,15,4,/,-9,-2,3.1
COCCN1C(=O)c2oc3cc(C)c(C)cc3c(=O)c2C1c1cccc(O)c1 (stereo unspecified),8446,10,-5,-24,-7,-1,4.2
CCOC(=O)c1sc(N)c(C#N)c1COC(=O)CNC(=O)c1cc(OC)c(OC)c(OC)c1,16372*,8,13,0,4,3,1.4
O=C1CN(c2nnnn2-c2ccccc2)CCN1,3053,2,8,-23,/,3,1.6
CCN1CC2C3C(=O)N(C)C(=O)C3[C@](Cc3ccccc3)(C1=O)N2C(=O)c1ccc(Cl)c(Cl)c1 (stereo partly specified),/,-3,0,/,/,-8,5.8
Cc1ccc(S(=O)(=O)N/N=C\c2ccc([N+](=O)[O-])o2)cc1,7413,/,/,-22,0,/,/
O=C(Nc1cccc(Cl)c1)N1CCC(CO)(CCOc2ccccc2)CC1,1900,/,/,-10,6,/,/
Cc1cnc(NC(=O)Cc2cccs2)s1,3154,10,7,-23,/,6,6.2
Cc1csc(NC(=O)C2CCCO2)n1 (stereo unspecified),21132*,2,4,-17,-5,-1,4.9
O=C(CSc1nnc(-c2n[nH]c3ccccc23)n1-c1ccccc1)Nc1cccc(Cl)c1,2517,5,-1,0,-20,-15,7.0
COc1ccc(Br)cc1/C=C(\C(=O)O)c1ccc(S(=O)(=O)N2CCCCC2)s1,3882,/,/,-8,/,-8,7.6
O=C(NCc1ccco1)c1ccc2c(c1)S(=O)(=O)c1ccccc1C2=O,3693,3,11,-14,1,6,12
CC(=O)C1=NOC2C(=O)N(c3ccccc3)C(=O)C12 (stereo unspecified),3090,4,-2,-7,11,6,1.4
COC(=O)c1ccc(N/C(=N/S(=O)(=O)c2ccccc2)c2ccccc2)cc1,2199,/,/,-28,6,/,/
CCOc1ccc(S(=O)(=O)N(C)c2ccc(OCC(=O)N3CCOCC3)cc2)cc1,3516,14,8,-20,3,-5,22
COc1ccc2ccc(O)c(CN3CC=C(c4ccccc4)CC3)c2c1,4310,0,-4,-18,10,-3,4.9
CC1CCN(C(=O)Cn2c3ccccc3c3nc4n(c(=O)c32)CCCS4)CC1,5665,-3,8,-21,4,5,3.0
CSc1ccccc1OCc1cc(C(=O)N2CCN(C3CCCC3)C(=O)C2)no1,?,7,3,-31,1,3,-0.9
COc1ccc(-c2csc(NC(=O)c3c(C)noc3C)n2)cc1,3366,-2,6,-22,/,2,1.3
COC(=O)c1ccc(COC(=O)CNS(=O)(=O)c2ccccc2)cc1,4316,3,6,-29,9,7,-0.8
O=C(CCl)NNc1cccc(Cl)n1,2991,/,/,-21,4,-2,-1.1
CCCn1nc(C(=O)Nc2ccc3c(c2)OCO3)c2ccccc2c1=O,4398,5,-1,-3,/,6,2.9
COc1ccc(C=NNC(=O)CNC(=O)/C=C/c2ccccc2OC)cc1,/,6,-4,/,/,3,1.1

# Next section
SMILES,Autofluor counter,Mtb hypoxia inh,Mtb hypoxia inh growth,PrP 5UTR inh,BJeLR lethal,Sa ugtP lethal,RN4220 kill
Cc1cc(C)nc(SCc2ccc(C(=O)N/N=C/c3ccco3)cc2)n1,4017,/,/,-3,15,/,/
CS(=O)(=O)Nc1ccccc1C(=O)N1CCCC1,2711,/,/,9,-7,3,3.6
O=C(NN=Cc1c[nH]c2ccccc12)c1cc(-c2ccc(-c3ccccc3)cc2)n[nH]1,/,4,11,/,/,28,87*
O=C(NCc1ccc2c(c1)OCO2)c1ccccc1,3955,/,/,-31,0,16,4.0
Nc1ccccc1C#Cc1ccccc1,3624,9,9,-40,1,21,4.8
COCCNC(=O)CCC1CCN(C/C=C/c2ccccc2OC)CC1,4108,-2,8,-12,-10,-5,-1.6
CC(C)(C)c1ccc(OCCC(=O)OCC(=O)N2c3ccccc3NC(=O)C2(C)C)cc1,5614,3,-4,-5,-6,-3,8.3
Cc1cc(C(=O)O)ccc1-c1ccc(/C=C2\NC(=O)N(Cc3ccc(F)cc3)C2=O)o1,4563,1,-8,-20,5,7,16

# At a glance, part of the list above:
SMILES,Autofluor counter,Mtb hypoxia inh,Mtb hypoxia inh growth,PrP 5UTR inh,BJeLR lethal,Sa ugtP lethal,RN4220 kill
COc1ccc(Br)cc1/C=C(\C(=O)O)c1ccc(S(=O)(=O)N2CCCCC2)s1,3882,/,/,-8,/,-8,7.6
O=C(NCc1ccco1)c1ccc2c(c1)S(=O)(=O)c1ccccc1C2=O,3693,3,11,-14,1,6,12
CC(=O)C1=NOC2C(=O)N(c3ccccc3)C(=O)C12 (stereo unspecified),3090,4,-2,-7,11,6,1.4
COC(=O)c1ccc(N/C(=N/S(=O)(=O)c2ccccc2)c2ccccc2)cc1,2199,/,/,-28,6,/,/
CCOc1ccc(S(=O)(=O)N(C)c2ccc(OCC(=O)N3CCOCC3)cc2)cc1,3516,14,8,-20,3,-5,22
COc1ccc2ccc(O)c(CN3CC=C(c4ccccc4)CC3)c2c1,4310,0,-4,-18,10,-3,4.9
CC1CCN(C(=O)Cn2c3ccccc3c3nc4n(c(=O)c32)CCCS4)CC1,5665,-3,8,-21,4,5,3.0
CSc1ccccc1OCc1cc(C(=O)N2CCN(C3CCCC3)C(=O)C2)no1,?,7,3,-31,1,3,-0.9
COc1ccc(-c2csc(NC(=O)c3c(C)noc3C)n2)cc1,3366,-2,6,-22,/,2,1.3
COC(=O)c1ccc(COC(=O)CNS(=O)(=O)c2ccccc2)cc1,4316,3,6,-29,9,7,-0.8
O=C(CCl)NNc1cccc(Cl)n1,2991,/,/,-21,4,-2,-1.1
CCCn1nc(C(=O)Nc2ccc3c(c2)OCO3)c2ccccc2c1=O,4398,5,-1,-3,/,6,2.9
COc1ccc(C=NNC(=O)CNC(=O)/C=C/c2ccccc2OC)cc1,/,6,-4,/,/,3,1.1
Cc1cc(C)nc(SCc2ccc(C(=O)N/N=C/c3ccco3)cc2)n1,4017,/,/,-3,15,/,/
CS(=O)(=O)Nc1ccccc1C(=O)N1CCCC1,2711,/,/,9,-7,3,3.6
O=C(NN=Cc1c[nH]c2ccccc12)c1cc(-c2ccc(-c3ccccc3)cc2)n[nH]1,/,4,11,/,/,28,87*
O=C(NCc1ccc2c(c1)OCO2)c1ccccc1,3955,/,/,-31,0,16,4.0
Nc1ccccc1C#Cc1ccccc1,3624,9,9,-40,1,21,4.8
